Source: PubChem (National Center for Advancing Translational Sciences (NCATS))
StopGo FLuc = FMDV 2A StopGo reporter, firefly signal; Potency, µM (doses to about 57.5 µM), for the others: top-dose signal change, negative = less light; 0.23% of 120,000 active; HEK cells with a luciferase reporter of 2A StopGo recoding; active = well fitted falling curve with a large enough effect; inconclusive = small, poorly fitted or top-dose-only effect; inactive = no such curve, though single readings can be large or run the other way; further: nearly all actives have a fitted effect of over 60% in size; overnight with compound
2A Renilla = lowers the Renilla signal of an FMDV 2A StopGo reporter; HEK cells with a luciferase reporter of 2A StopGo recoding; Potency, µM (series often up to 57.5 µM), for the others: at the top dose signal change, negative = less light; 0.32% of 120,000 active; AID 1745857; active means well fitted falling curve with a large enough effect; inconclusive means small, poorly fitted or top-dose-only effect; inactive means no such curve, though single readings can be large or run the other way; further: nearly all actives have a fitted effect of over 55% in size; overnight with compound
* = called active by the depositor; ? = inconclusive; [ ] = dose if it differs, or a comment. On the % scale 0 is the no-effect control and ±100 the full control effect; potency means the concentration at half of the fitted maximal effect.

Sample of the layout, three compounds:
nr	Molecule	StopGo FLuc	2A Renilla
1	COc1ccc(S(=O)(=O)N2CCc3ccccc32)cc1C(=O)N1CCN(C(=O)c2ccco2)CC1	1%	41%[activator]
2	C=C(C)C1CCC2(COC(=O)CCC(=O)O)CC[C@]3(C)C(CCC4[C@@]5(C)CCC(OC(=O)CCC(=O)O)C(C)(C)C5CC[C@]43C)C12 (stereo not given in full)	0%	-28%
3	Cc1cc(C)n2nc(CC(=O)Nc3nc(-c4ccc(F)cc4)c(C)s3)nc2n1	-9%	-10%

Results (from the top)
nr	Molecule	StopGo FLuc	2A Renilla
1	COc1ccc(S(=O)(=O)N2CCc3ccccc32)cc1C(=O)N1CCN(C(=O)c2ccco2)CC1	1%	41%[activator]
2	C=C(C)C1CCC2(COC(=O)CCC(=O)O)CC[C@]3(C)C(CCC4[C@@]5(C)CCC(OC(=O)CCC(=O)O)C(C)(C)C5CC[C@]43C)C12 (stereo not given in full)	0%	-28%
3	Cc1cc(C)n2nc(CC(=O)Nc3nc(-c4ccc(F)cc4)c(C)s3)nc2n1	-9%	-10%
4	CCc1ccc(NC(=O)CSc2nc3nc(C)cc(C)n3n2)cc1	15%	10%
5	CCCCNc1cc(N2CCN(C3CCCCC3)CC2)c2noc3c2c1C(=O)c1ccccc1-3	-14%	-3%
6	COc1ccc(-c2c(C(F)(F)F)oc3cc(OC(=O)C(C)C)ccc3c2=O)cc1OC	17%	2%
7	O=C(NC1CCCCC1)c1ccc2c(c1)sc1nc(-c3ccccc3)cn12	16%	-11%
8	CCOC(=O)C1CCCN(C(=O)Cn2cccc2-c2nc(-c3ccc(C)cc3)no2)C1 (stereo not given)	93%[activator]	30%[activator]
9	CC(C)CN(CC(=O)NC(N)=O)C1CC1	4%	-3%
10	CC(Sc1nc(CN2CCOCC2)nc2ccccc12)C(=O)Nc1cccc(F)c1 (stereo not given)	-22%	-30%
11	Cc1ccc(C(=O)Nc2nnc(S(=O)(=O)N(C)Cc3ccc(F)cc3)s2)cc1	60%[activator]	5%
12	COc1ccc(NC(=O)Nc2nnc(N(CC(C)C)CC(C)C)s2)c(OC)c1	4%	-7%
13	O=C(O)c1ccc(N2C(=O)c3[nH]nc(-c4ccccc4)c3C2c2cccc(F)c2)cc1 (stereo not given)	-15%	-11%
14	O=S(=O)(c1ccc(F)cc1)c1ccc(F)cc1	29%	13%
15	Cc1cccc(-n2c(C)nc3cc(C(=O)NCCC4=CCCCC4)ccc32)c1	35%[activator]	-5%

Ordered by heavy-atom count (rising): 4 of the compounds above.
nr	Molecule	StopGo FLuc	2A Renilla
14	O=S(=O)(c1ccc(F)cc1)c1ccc(F)cc1	29%	13%
3	Cc1cc(C)n2nc(CC(=O)Nc3nc(-c4ccc(F)cc4)c(C)s3)nc2n1	-9%	-10%
8	CCOC(=O)C1CCCN(C(=O)Cn2cccc2-c2nc(-c3ccc(C)cc3)no2)C1 (stereo not given)	93%[activator]	30%[activator]
2	C=C(C)C1CCC2(COC(=O)CCC(=O)O)CC[C@]3(C)C(CCC4[C@@]5(C)CCC(OC(=O)CCC(=O)O)C(C)(C)C5CC[C@]43C)C12 (stereo not given in full)	0%	-28%

Going on with the list.
nr	Molecule	StopGo FLuc	2A Renilla
16	Cc1ccc(-c2nnn3c2nc(NCC(C)c2ccccc2)c2ccccc23)cc1 (stereo not given)	0%	-9%
17	CC(COc1cccc([N+](=O)[O-])c1)CN1CCC(C(O)(c2ccccc2)c2ccccc2)CC1 (stereo not given)	-12%	-7%
18	CCOc1ccc2c(=O)c(Oc3ccccc3OC)c(C)oc2c1	4%	18%
19	CCCNC(=O)NC(=O)CN(Cc1ccc(C#N)cc1)C(C)C	0%	0%
20	COCCCNC(=O)CN(C)C(=O)c1cc2ccccc2n1C	-9%	-17%
21	CC1=C(C(=O)Nc2ccccc2)C(c2cccs2)n2nc(SCc3ccccc3F)nc2N1 (stereo not given)	-13%	-14%
22	COc1ccccc1C(=O)Nc1ccc2oc(-c3ccccc3)cc(=O)c2c1	33%[activator]	2%
23	CCOc1cc2[nH]c(=O)n(CCCCC(=O)N3CCN(c4ccc(OC)cc4)CC3)c(=O)c2cc1OCC	-10%	3%
24	COC(=O)C1C2CCC(C2)C1C(=O)OCC(=O)c1ccc(Cl)cc1 (stereo not given)	?	?
25	CC(C)CNC(=O)CCc1ccc(NC(=O)C2CCCCC2)cc1	9%	-2%
26	CCOC(=O)C1CCN(S(=O)(=O)c2ccc3c(c2)N(C)C(=O)CC(=O)N3C)CC1	-21%	-14%
27	Cc1nn(C)c(C)c1CNCc1cccnc1N1CCOCC1	-11%	4%
28	CC(C)CCNC(=O)Cn1c(=O)n(CCC(C)C)c(=O)c2sccc21	-1%	8%
29	CCn1c(=O)c2cc(C(=O)N3CCN(c4cccc(Cl)c4)CC3)sc2c2ccccc21	?	-6%
30	COC(=O)c1ccc(NC(=O)CC2C(=O)N(c3ccccc3)C(=O)N2Cc2cccs2)cc1 (stereo not given)	14%	146%[activator]

Entries of single compounds as entered above:
`CCOc1cc2[nH]c(=O)n(CCCCC(=O)N3CCN(c4ccc(OC)cc4)CC3)c(=O)c2cc1OCC` is listed with StopGo FLuc = -10%; 2A Renilla = 3%
`CC(COc1cccc([N+](=O)[O-])c1)CN1CCC(C(O)(c2ccccc2)c2ccccc2)CC1` (stereo not given) is listed with StopGo FLuc = -12%; 2A Renilla = -7%

Next records follow.
nr	Molecule	StopGo FLuc	2A Renilla
31	CCOc1ccccc1OCC(=O)OC(C)C(N)=O (stereo not given)	20%	10%
32	Cc1nn(CC(=O)Nc2ccc3c(c2)nc2n3CCN(CC(C)C)C2)c(=O)c2ccccc12	36%[activator]	12%
33	Cn1c(=O)c2[nH]c(-c3cccc(O)c3)nc2n(C)c1=O	-4%	-11%
34	CCN(CC)S(=O)(=O)c1ccc(NC(=O)Cc2nn(C)c(=O)c3ccccc23)cc1	?	?
35	C[C@H](NC(=O)Cn1ccc2ccc(OCc3ccccc3)cc21)C(=O)O	37%[activator]	2%
36	O=C(Nc1ccc(N2CCCCCC2)cc1)c1ccccc1SC1CCS(=O)(=O)C1 (stereo not given)	-3%	-7%
37	O=C(Nc1ccc(Cl)c(C(F)(F)F)c1)c1cc(F)c(F)cc1Cl	?	?
38	Brc1ccc(/C=N/N=C/c2ccc(Br)s2)s1	105%[activator]	-6%
39	Fc1cccc(Cl)c1/C=N/Nc1c(Cl)cc(Cl)cc1Cl	86%[activator]	19%
40	N#C/C(=C/c1ccccc1OCc1ccccc1)c1nc2ccccc2[nH]1	0%	41%[activator]
41	COc1ccc(C(=O)NCC(c2ccco2)S(=O)(=O)c2ccccc2)cc1 (stereo not given)	11%	23%
42	Cc1ccc(NC(=O)COC(=O)COc2cccc3c2OC(C)(C)C3)cc1C	22%	3%
43	O=C(CCc1ccco1)NC1(C(=O)O)CCCCCC1	0%	20%
44	COc1ccc(OCCNC(=O)c2cc(C3CC3)nc3ccccc23)cc1	-4%	12%
45	CCN(Cc1ccccc1)C(=O)c1cc2c(=O)[nH]c3ccc(C)cc3c2s1	-6%	-14%

Further records
nr	Molecule	StopGo FLuc	2A Renilla
46	COc1cc(-c2nc(Cn3nnc(C(=O)Nc4cc(C)cc(C)c4)c3C)c(C)o2)cc(OC)c1OC	-10%	-15%
47	O=C(NC(NC(=O)c1ccccc1)c1ccc(F)cc1)c1ccccc1	0%	19%
48	CCCCNS(=O)(=O)c1ccc(NC(=O)c2c(-c3ccccc3)noc2C)cc1	-8%	211%[activator]
49	FC(F)(F)c1cc(-c2ccco2)nc(=S)[nH]1	10%	1%
50	CCCNC(=O)CCC(=O)NC(C)c1cccc(Cl)c1 (stereo not given)	-3%	-10%
51	Cc1ccc(NC(=O)CN(CCc2ccccc2)S(=O)(=O)c2ccccc2)c(C)c1	-16%	-3%
52	CCCC(=O)NCc1ccc(-c2nc3ccccc3s2)cc1	106%[activator]	?
53	Cc1cccc(NC(=O)c2cc(S(=O)(=O)N3CCCCC3)c[nH]2)c1C	-7%	34%[activator]
54	Cc1nc2ccc(Cl)cc2cc1C(=O)Nc1ccncc1	2%	8%
55	Nc1nc2c(s1)C(c1cc(Cl)ccc1F)CC(=O)N2 (stereo not given)	11%	-6%
56	CCOC(=O)c1cccc(NC(=O)c2cc3c(=O)n(C)c4ccccc4c3n2C)c1	12%	-1%
57	CCn1c(SCc2cccc(Br)c2)nnc1-c1nonc1NC(C)=O	-10%	-20%
58	Cc1cccc(CSc2nc3c([nH]c4ccccc43)c(=O)n2C)c1	-18%	-12%
59	COCCN(CCOC)CC(O)COc1ccc(C#N)cc1 (stereo not given)	6%	11%
60	COc1ccc(C2c3cccn3CCN2S(=O)(=O)c2ccc([N+](=O)[O-])cc2)cc1 (stereo not given)	-12%	11%

Results in sequence from the entries so far:
StopGo FLuc for nos. 55 to 58, in order: 11%, 12%, -10%, -18%

Remaining list, next part.
nr	Molecule	StopGo FLuc	2A Renilla
61	O=C(COC(=O)c1cccc([N+](=O)[O-])c1C(=O)OCC(=O)c1ccc(Br)cc1)c1ccc(Br)cc1	0%	?
62	CNCc1ccc(-c2ccccc2Cl)o1	-7%	-10%
63	COc1ccc2cc(-c3nc(-c4ccccc4F)no3)c(=O)oc2c1	0%	13%
64	Cc1nn(Cc2ccc(Cl)cc2)c(C)c1NC(=O)c1cc(-c2ccco2)on1	?	-28%
65	COc1cccc(N2CCN(C(=O)CN3CCSc4ccccc43)CC2)c1	14%	6%
66	Cc1ccc(C)c(CNC(=O)C2CCN(c3nc4ccccc4nc3C(F)(F)F)CC2)c1	-4%	-4%
67	CC(C)C(=O)N1N=C(c2ccccc2NS(C)(=O)=O)CC1c1ccco1 (stereo not given)	0%	24%
68	O=CN1CCN(C(=O)Cn2ccc3cc(OCc4ccccc4)ccc32)CC1	181%[activator]	14%
69	Nc1nc(SCC(=O)NCc2ccc(Cl)cc2)n[nH]1	-4%	-9%
70	CCOC(=O)C1C(=O)C=C(c2ccc(C)cc2)CC1c1cccs1 (stereo not given)	46%[activator]	0%
71	COc1ccc(OCC(=O)Nc2ccc3oc(-c4ccccc4C)nc3c2)cc1	140%[activator]	2%
72	CC1(C)CC(=O)C2=C(C1)Nc1nonc1NC2c1ccccc1 (stereo not given)	-5%	-7%
73	Cc1cc(F)ccc1NC(=O)CCn1nc(C)c(S(=O)(=O)N2CCCCC2)c1C	-16%	-4%
74	COc1ccc(NCc2cc3ccc(OC)cc3n(CC(=O)Nc3cccc(OC)c3)c2=O)cc1	10%	2%
75	COc1ccc(C(=O)Nc2ccccc2-c2nc3ccccc3s2)c(OC)c1	-9%	-18%

Going on with the list:
nr	Molecule	StopGo FLuc	2A Renilla
76	COC(=O)c1c(C)[nH]c(C(=O)COc2ccc3ccc(=O)oc3c2)c1C	14%	7%
77	Cc1ccc(CNC2CCCc3c2cnn3Cc2ccccc2)s1 (stereo not given)	2%	-17%
78	CCCCN1C(=O)C(O)(CC(=O)c2cccnc2)c2ccccc21 (stereo not given)	2%	8%
79	C=CCn1c(SCc2coc(-c3ccc(Cl)cc3)n2)nnc1C1CCS(=O)(=O)C1 (stereo not given)	?	?
80	CCc1cccc(NC(=O)Cc2n[nH]c(=O)c3ccccc23)c1	18%	-3%
81	CCc1ccc(NC(=O)CNC(=O)c2ccc(OC)cc2)cc1	21%	2%
82	COc1ccccc1NC(=O)CSc1nc2ccccc2c(=O)n1CCn1cc(Cl)cn1	-13%	-20%
83	COc1ccccc1-c1cc(C(=O)Nc2ccc(C)cc2)no1	237%[activator]	51%[activator]
84	N#C/C(=C\c1cn[nH]c1-c1ccccc1)c1nc(-c2ccccc2)cs1	20%	28%
85	CCOc1ccc(CNC(=O)c2cnc3sc(N4CCOCC4)nn3c2=O)cc1	66%[activator]	0%
86	CCCN1Cc2cccc(C(=O)Nc3ccccc3Br)c2C1=O	1%	36%[activator]
87	Cn1nc(C(=O)N2CCCC(c3nc4ccccc4s3)C2)c2ccccc2c1=O (stereo not given)	19%	11%
88	O=C(/C=C/c1ccsc1)NCCc1ccccc1	172%[activator]	0%[1.06 µM]
89	O=C(NN=C1CCCCCCC1)C1CC1	0%	20%
90	Cc1cc(=O)oc2cc(OCCOC(C)C)ccc12	178%[activator]	14%

The list goes on:
nr	Molecule	StopGo FLuc	2A Renilla
91	COc1cccc(CNC(=O)c2cccc(-n3c(C)nc4cccnc43)c2)c1OC	0%	-11%
92	CCC(CC)NC(=O)c1ccc(C)c(C)c1	0%	-4%
93	COc1cc(/C=C(\C#N)c2nc3ccc(C)cc3[nH]2)cc(Br)c1OC	0%	25%
94	Fc1ccc(-c2csc(Nc3ccccn3)n2)cc1	0%	-23%
95	COc1cccc(NC(=O)C2CCN(c3ccc4nnc(C(C)C)n4n3)CC2)c1	-27%	-29%
96	COC(=O)c1ccc(COC(=O)c2ccc3ccccc3n2)o1	0%	2%[1.06 µM]
97	Cc1[nH]c2ccccc2c1C(=O)CN1C(=O)NC2(CCOc3ccccc32)C1=O (stereo not given)	-9%	-2%
98	Cc1cccc(-c2cccc3c4c([nH]c23)[C@@H]2C[C@H](N(C)C(=S)Nc3ccc(C#N)cc3)[C@H]([C@H](C)O)CN2CC4)c1	11%	14%
99	CCOc1ccc(CNC(=O)C2CCN(S(=O)(=O)c3cn(C)cn3)CC2)cc1	-15%	-5%
100	O=C1NC2(CCCCC2)C(=O)N1Cc1cc(F)cc2cccnc12	4%	3%
101	CN(Cc1ccc(Br)cc1)S(=O)(=O)c1ccc2c(c1)CCC2	11%	50%[activator]
102	CN(CC(=O)Nc1nccs1)S(=O)(=O)c1ccc(Br)cc1	2%	3%
103	COc1ccc(-c2c(C)c3c(n2C)C(c2ccccc2)Oc2ccccc2-3)cc1 (stereo not given)	-23%	20%
104	Cc1ccc(CNC(=O)CCCn2c(=O)c3ccccc3n(Cc3ccc(Cl)cc3)c2=O)cc1	20%	10%
105	CN1CCC(NCc2ccccc2)CC1	0%	6%
106	COc1cc(C2CC(=O)N(Cc3cccc(F)c3)c3ccccc3S2)cc(OC)c1OC (stereo not given)	?	?

This is a subset; rates above refer to the full screens.
